High-throughput results (PubChem)
Sfp PPTase inh – blocks B. subtilis Sfp PPTase activity; Biochemical Sfp PPTase activity, qHTS; AID 1490; Q9F4F7; Potency, µM, for inactives: max response, negative = inhibition, actives largely listed as inhibitors; 3.5% of 310,000 active; active = well fitted inhibition curve with a large enough effect; inconclusive = small, poorly fitted or top-dose-only effect, or another doubt; inactive = no such curve, though single readings can be large or run the other way;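 also: the enzyme is Sfp with the accession as filed and its product quenches rhodamine fluorescence; potency is read from the fitted curve at half-maximal effect; 0% = enzyme reaction without inhibitor and -100% = no enzyme wells; top concentration of the series not given in the record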
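Buffer: 50 mM Hepes-Na pH 7.6, 10 mM MgCl2, 0.01% Nonidet P-40, 0.01% BSA. Enzyme 15 nM, pre-exposed to compound 15 min; substrates then added and fluorescence change tracked over 30 min.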
TRPV1 PAM – enhances activation of the human vanilloid receptor TRPV1. Q8NER1. TRPV1-expressing cells, Fluo-8 calcium influx, capsaicin EC20 potentiation; host cell line not named in the record; control for the full effect not named in the record. potentiation, % at 8.33 µM. 0.02% of 320,000 active; active means potentiation above 80%; inconclusive means 30% to 80%; inactive means below 30%; also: 0% is about no effect
Target sequence (Q8NER1 whole entry, looked up): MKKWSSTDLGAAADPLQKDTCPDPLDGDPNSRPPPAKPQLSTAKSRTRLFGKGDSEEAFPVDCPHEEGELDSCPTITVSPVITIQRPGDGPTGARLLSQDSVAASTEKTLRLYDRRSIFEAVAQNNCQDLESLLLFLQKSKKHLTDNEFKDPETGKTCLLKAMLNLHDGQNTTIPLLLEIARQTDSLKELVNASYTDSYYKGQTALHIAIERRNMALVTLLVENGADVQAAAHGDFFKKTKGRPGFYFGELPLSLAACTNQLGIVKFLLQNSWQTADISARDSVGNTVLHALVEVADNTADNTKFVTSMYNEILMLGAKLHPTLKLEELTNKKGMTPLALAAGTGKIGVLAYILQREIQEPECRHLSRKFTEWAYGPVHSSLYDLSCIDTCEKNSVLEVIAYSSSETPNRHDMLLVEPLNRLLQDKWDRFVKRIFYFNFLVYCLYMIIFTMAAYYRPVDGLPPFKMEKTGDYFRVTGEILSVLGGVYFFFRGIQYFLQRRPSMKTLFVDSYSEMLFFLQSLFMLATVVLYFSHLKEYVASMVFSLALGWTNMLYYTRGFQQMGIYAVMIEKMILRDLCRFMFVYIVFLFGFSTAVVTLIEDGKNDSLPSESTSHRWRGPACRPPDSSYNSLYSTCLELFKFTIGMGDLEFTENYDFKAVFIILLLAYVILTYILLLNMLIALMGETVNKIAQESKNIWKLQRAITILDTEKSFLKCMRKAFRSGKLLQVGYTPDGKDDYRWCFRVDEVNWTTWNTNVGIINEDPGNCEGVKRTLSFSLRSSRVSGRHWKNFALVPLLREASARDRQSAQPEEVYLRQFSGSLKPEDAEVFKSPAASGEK
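Fluo-8 calcium influx in TRPV1-expressing cells, kinetic read (ex 480/em 520 nm). Compound added and read 3 min for agonist activity, followed by capsaicin at EC20 final and 2 min further read for enhancement.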
gsp antag – gsp mutant antagonism; gsp-mutant cells, cAMP HTRF, 30 min; control for the full effect not named in the record; Potency, µM (doses to about 76.9 µM), for the others: at the highest dose activity change, negative = inhibition, most hits filed as inhibitors; 0.4% of 340,000 active; active = falling curve of any shape with a large fitted effect; inconclusive = falling curve, mostly with a smaller effect; inactive = flat or rising curve; cell line not stated here;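 also: intracellular cAMP measured with PDE inhibitor Ro 20-1724 present during compound exposure; potency is read from the fitted curve at half-maximal effect; % is scaled to controls: 0 for no effect and ±100 for the full control effect; nearly all actives have a fitted effect of over 65% in size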
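Measurement of cellular cAMP by homogeneous time-resolved fluorescence following a 30 min compound exposure at 37C. The PDE inhibitor […] was present throughout; the assay buffer was DPBS with 0.05% BSA and 0.005% Tween 20.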
D2 PAM – positive allosteric modulators of human D2 dopamine receptor | P14416 | DiscoveRx D2 beta-arrestin cells, luminescence, 90 min; 100% = 57 uM dopamine signal | potentiation, % (test concentration not listed) | 0.23% of 360,000 active; active = potentiation of 50% or more; inconclusive = 30% to 50%; inactive = 30% or less;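 also: compound concentration not given in the record; tested on top of an EC20 dose of dopamine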
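PathHunter D2 cells, attached overnight at 37 deg C, received compound in DMSO plus dopamine at EC20 (50 nM final) for 90 min at 37 deg C. Beta-arrestin recruitment was read as luminescence after 1 h with detection reagent at ambient temperature.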
ClpP mod – qHTS Assay for Activators of ClpP; Potency, µM (highest dose often 57.5 µM), for inactives: top-dose activity change, negative = active; AID 651965, 2013; purified B. subtilis ClpP, FRET peptide cleavage, 20 min; ATP-dependent Clp protease proteolytic subunit (Bacillus subtilis (strain 168)), P80244; 1.9% of 340,000 active; active = well fitted falling curve with a large enough effect; inconclusive = small, poorly fitted or top-dose-only effect; inactive = no such curve, though single readings can be large or run the other way; also: potency is read from the fitted curve at half-maximal effect; the source files actives as falling curves though it sought activators and does not explain the sign; nearly all actives have a fitted effect of over 65% in size; many hits overshoot -100%
Target sequence (P80244 whole entry, looked up): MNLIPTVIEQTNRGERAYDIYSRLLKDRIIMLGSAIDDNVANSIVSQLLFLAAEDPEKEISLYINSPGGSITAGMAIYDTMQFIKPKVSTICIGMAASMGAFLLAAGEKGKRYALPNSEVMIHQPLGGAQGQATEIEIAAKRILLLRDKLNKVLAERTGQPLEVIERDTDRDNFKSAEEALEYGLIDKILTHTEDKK
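FRET quenching reversal measured ClpP activation: 10 microg/mL B. subtilis ClpP at pH 8 with the FRET-FV decapeptide, read at 430 nm after 320 nm excitation. The 20-min minus 0-min signal was scaled between DMSO/no-enzyme wells and ADEP (5.8 microM final).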
Menin MLL FP FL – menin-MLL binding inhibition, fluorescein peptide | Fluorescence polarization, fluorescein-MLL peptide displacement from menin | FP activity change, % at 61.4 µM | 290,000 tested, under 10 active; inconclusive = falling polarisation curve, or a change in total fluorescence; inactive = total fluorescence flat and polarisation flat or rising; no compound was filed as active; the % refers to the polarisation; negative = inhibition;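 also: % of control where 0% means no effect; inhibitors lower the polarisation; unlabelled MLL peptide was the positive control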
gsp agonist – agonists of gsp mutant (McCune-Albright syndrome); gsp mutant cells, cAMP HTRF, 30 min; control for the full effect not named in the record; Potency, µM (titrated, usually from 76.9 µM), without a hit: at the highest dose activation (cAMP increase), most hits filed as activators; 0.13% of 340,000 active; AID 624287; active = well fitted activation curve with a large enough effect; inconclusive = small, poorly fitted or top-dose-only effect, or another doubt; inactive = no such curve, though single readings can be large or run the other way; cell line not stated here;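 also: phosphodiesterase inhibitor Ro 20-1724 added with compounds to block cAMP breakdown; potency is read from the fitted curve at half-maximal effect; nearly all actives have a fitted effect of over 60% in size; about a fifth of the inactives were tested at one dose only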
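Cells stably selected in G418 were plated at 2000/well, grown 16-24 hr, then given compounds in DMSO with the PDE inhibitor […] (300 uM solution added) for 30 min at 37C; cAMP was read by HTRF.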
* marks the source's active call; other numbers are inactive results; ? = inconclusive; . = no result given; & = joins results of further samples; [ ] = dose if it differs, or a comment.

| SMILES | Menin MLL FP FL | D2 PAM | TRPV1 PAM | ClpP mod | Sfp PPTase inh | gsp antag | gsp agonist |
| --- | --- | --- | --- | --- | --- | --- | --- |
| O=C(CN1C2=NCCN2c2ccccc21)c1cccs1 | 11 | -15 | 12 | -0.3% | 9% | 11% | -39%[inhibitor] |
| CCc1ccc2[nH]c(=O)c(CN(Cc3ccccc3OC)Cc3nnnn3Cc3ccco3)cc2c1 | 13 | -11 | 0 | -19% | -18% | ? | -36%[inhibitor] |
| Cc1n[nH]c2ccccc2c1=O | . | -2 | . | -3.1% | . | -13% | -56%[inhibitor] |
| O=c1oc2ccccc2cc1-c1csc(Nc2nc3c(F)cccc3s2)n1 | 18 | -24 | -5 | -7.8% | -12% | 8% | ? |
| CCn1nc(C(=O)OCc2c(C)noc2C)c2ccccc2c1=O | 4.0 | -3 | -17 | -6.3% | 7% | 11% | -4% |
| Cc1ccccc1CNC(=O)CCCC(=O)n1nc(C)c2ccccc21 | -0.3 | -1 | -5 | -2.5% | -10% | -14% | ? |
| O=C(O)CSc1nc2sc3c(c2c(=O)n1Cc1ccccc1)CCCCC3 | 3.1 | -6 | -5 | -9.2% | -4% | ? | -2%[15.4 µM] |
| O=C(CCNC(=O)c1ccco1)Nc1ccc(Cl)c(C(F)(F)F)c1 | -0.5 | -3 | -14 | . | 11% | -10% | 11%[15.4 µM] |
| COC(=O)c1cc(=O)nc2sc(-c3cccs3)nn12 | 1.8 | 0 | -6 | 318% | 15% | 6% | -3% |
| Cc1ccc(CSc2ccc3nnc(-c4ccccn4)n3n2)cc1 | 0.2 | 7 | 1 | 1.9% | 1% | -2% | 12%[15.4 µM] |
| Nc1nc(SCc2nc3sc4c(c3c(=O)[nH]2)CCCC4)n[nH]1 | 4.7 | -15 | -11 | -2.7% | 0% | 0% | -20% |
| Cc1ccc(NC(=O)c2ccc3c(c2)nnn3C)cc1 | . | -2 | -21 | -3.5% | 16% | 14% | -40%[inhibitor] |
| O=C(COC(=O)COc1ccc(Cl)cc1)NC1CCS(=O)(=O)C1 (stereo unspecified) | . | -7 | 4 | -2.4% | . | 3% | -17% |
| Cn1nnnc1SCC(=O)Nc1ccc(C(=O)N2CCN(Cc3ccccc3F)CC2)cc1 | . | -6 | -12 | -0.9% | . | 9% | -1%[15.4 µM] |
| COc1ccc(CCNC(=O)c2ccccc2OCc2c(C)noc2C)cc1 | . | -3 | -12 | -1.1% | . | 6% | -13% |
| CC(C)(Cc1ccccc1)/[N+]([O-])=C\c1ccccc1 | . | -15 | -1 | 0.7% | . | -1% | -17% |
| Cn1cc([N+](=O)[O-])c(C(=O)N/N=C/c2cc3c(cc2Br)OCO3)n1 | 0.9 | -2 | 4 | 0.8% | 7% | -1% | -40%[inhibitor] |
| CCOC(=O)C1CCN(Cc2nc(-c3ccc(OC)c(OC)c3)no2)CC1 | -1.2 | -4 | -9 | -0.8% | 2% | 2% | -4% |
| COc1ccc(/C=C(/NC(=O)c2ccccc2)C(=O)NC(Cc2c[nH]c3ccccc23)C(=O)O)cc1 (stereo unspecified) | . | -8 | 1 | 0.1% | 6% | 6% | ? |
| c1ccc(-n2nnnc2-c2cnc(-c3ccncc3)nc2-c2cccs2)cc1 | 0.4 | -3 | 9 | -27% | -24% | 3% | -9% |

Some of these compounds in order of their number in D2 PAM, smallest number first:
| SMILES | Menin MLL FP FL | D2 PAM | Sfp PPTase inh | gsp antag | gsp agonist |
| --- | --- | --- | --- | --- | --- |
| O=c1oc2ccccc2cc1-c1csc(Nc2nc3c(F)cccc3s2)n1 | 18 | -24 | -12% | 8% | ? |
| CCc1ccc2[nH]c(=O)c(CN(Cc3ccccc3OC)Cc3nnnn3Cc3ccco3)cc2c1 | 13 | -11 | -18% | ? | -36%[inhibitor] |
| Cc1n[nH]c2ccccc2c1=O | . | -2 | . | -13% | -56%[inhibitor] |

Following part
| SMILES | Menin MLL FP FL | D2 PAM | TRPV1 PAM | ClpP mod | Sfp PPTase inh | gsp antag | gsp agonist |
| --- | --- | --- | --- | --- | --- | --- | --- |
| COc1cc2cc(C(=O)N[C@@H](Cc3ccccc3)C(=O)O)n(C)c2c(OC)c1OC | 1.5 | -3 | 2 | 4.0% | 16% | -7% | -8% |
| Nc1nc(SCC(=O)Nc2ccc(Cl)c([N+](=O)[O-])c2)n[nH]1 | . | -6 | -1 | 0.4% | . | 4% | -56%[inhibitor] |
| CC(=O)NC1C(Oc2ccc3c(C)cc(=O)oc3c2)OC(COC(C)=O)C(OC(C)=O)C1OC(C)=O (stereo unspecified) | 4.3 | -6 | -11 | . | 16% | 6% | -3% |
| Cc1ccc(-c2cnc(-c3ccncc3)o2)cc1 | -2.5 | -5 | -20 | ? | 56µM* | -18% | -16% |
| CC(C)(C)C(=O)OC/C(N)=N/OC(=O)c1ccc(Cl)cc1 | 1.8 | 29 | ? | . | -3% | 20% | 2%[15.4 µM] |
| Cc1ccc(-n2[nH]c(C)c(/C=N/NC(=O)c3ccc([N+](=O)[O-])cc3)c2=O)c(C)c1 | -0.1 | . | -26 | . | 6% | . | . |
| O=S(=O)(CCNCc1cccs1)c1ccc(Cl)cc1 | 5.8 | -5 | -14 | . | 3% | 0% | 0% |
| Cc1cc2nnc(SCC(=O)N3CCCCC3)n2c(N)n1 | 3.1 | -5 | -2 | 0.6% | 6% | 3% | -16% |
| Cc1ccc2c(c1)N(C(=O)CCC(=O)N1CCC(C(N)=O)CC1)CC(C)O2 (stereo unspecified) | -0.6 | -7 | -20 | -3.1% | 22% | -5% | -16% |
| O=C(CNC(=S)N(CCCN1CCOCC1)Cc1cccs1)NC1CC1 | -0.4 | -9 | -5 | -3.4% | 16% | 14% | 7%[15.4 µM] |
| O=C(Cc1ccccc1)NCC1CCCO1 (stereo unspecified) | -0.1 | -8 | -1 | -0.8% | 4% | 1% | -20% |
| Cc1ccc(S(=O)(=O)N(C)c2ccc(OC(C)C(=O)N3CCCC3)cc2)cc1C (stereo unspecified) | . | -25 | -18 | -2.8% | . | -14% | 22%[15.4 µM] |
| COC(=O)C(=NNc1c(C)n(C)n(-c2ccccc2)c1=O)C(=O)OC | -0.6 | -9 | 7 | 0.7% | -12% | 4% | -22% |
| COC(=O)c1ccc(S(=O)(=O)N2CCN(CCO)CC2)n1C | -4.7 | 3 | -11 | . | ? | 13% | -15%[15.4 µM] |
| Cc1cc(NC(=O)Cn2cnc3c(nnn3-c3ccc(C)c(Cl)c3)c2=O)no1 | 1.8 | -21 | -4 | -2.0% | 21% | -10% | -2%[15.4 µM] |
| O=C(NCC1CCCO1)c1cccc(Br)c1 (stereo unspecified) | 1.3 | 2 | -4 | 0.0% | 4% | 8% | -2% |
| CN(C)C(CNC(=O)c1ccc2nccnc2c1)c1ccco1 (stereo unspecified) | . | -16 | . | . | . | 3% | ? |
| O=c1c(Cc2ccccc2)c(O)ccn1CCc1cnc[nH]1 | -0.2 | 0 | 6 | . | 20% | 2% | 21% |
| COc1cccc([C@@H]2Oc3ccc(OC)cc3C(=O)[C@H]2O)c1 | -0.7 | -24 | -1 | -25% | -10%&16%&27% | -1% | . |
| O=C(O)COc1c(-c2ccccc2)oc2ccccc2c1=O | 5.2 | -16 | 5 | -11% | 5% | -3% | -4% |
| CC(C)S(=O)(=O)N1CCN(c2ccnc3cc(Cl)ccc23)CC1 | 0.5 | 3 | -2 | . | -2% | -5% | 13%[15.4 µM] |
| Nn1c(SCC(=O)N2CCCCC2)nnc1-c1ccncc1 | 1.9 | -10 | 0 | 28µM* | 10% | 3% | -54%[inhibitor] |
| CCc1ccc(C=NC23CN4CN(CN(C4)C2)C3)s1 | 0.3 | -5 | -8 | 0.9% | 18% | 11% | -7% |
| COc1ccc(/C=C/C(=O)OCC(=O)c2c(N)n(C)c(=O)n(C)c2=O)c(OC)c1 | -6.1 | -2 | 4 | -4.8% | 22% | 3% | 2%[15.4 µM] |
| Cc1cc(Cl)c(OCCOCCN2CCCCC2)c(Br)c1 | 8.6 | -10 | -7 | . | 63µM* | 9% | -9%[15.4 µM] |
| COC(=O)c1cc(S(=O)(=O)NCc2ccccc2)c[nH]1 | 1.4 | -3 | 2 | -0.4% | 24% | 3% | -3% |
| CC1CCc2cc(F)ccc2N1C(=O)C1(C)CC1(Cl)Cl (stereo unspecified) | 1.6 | -8 | -17 | -7.2% | 1% | -23% | -2% |
| CC(C)C(=O)Nc1ccc2c(c1)C(=O)NC2=O | -3.9 | 0 | 5 | . | 3% | 4% | -2%[15.4 µM] |
| CCOC(=O)C(CCc1ccccn1)c1ccccc1 (stereo unspecified) | . | -11 | . | 7.9µM* | . | 0% | -9%[15.4 µM] |
| CC(=O)c1cccc(OCc2cc(C(=O)N(C)CCC3CCOCC3)no2)c1 | 0.8 | -2 | 7 | 0.5% | 21% | -14% | 25% |
| CC(=O)c1ccc(N(C(=O)CNC(=O)c2cccs2)C(C(=O)NCC2CCCO2)c2ccccc2)cc1 (stereo unspecified) | -12 | -4 | 9 | . | 9% | -2% | 0% |
| COc1ccc(NC(=O)CN2C(=O)c3ccccc3S2(=O)=O)cc1OC | -13 | 2 | ? | . | 2% | 1% | 0% |
| C/C(=C\c1cccc(Br)c1)C(=O)c1c(C)cc(C)[nH]c1=O | 1.2 | 2 | -2 | 1.7% | 8% | 8% | 8% |
| Cc1ccc(NCc2nnc(SCC(=O)Nc3cc(C)on3)n2C)cc1 | 2.2 | -17 | 19 | -2.2% | 9% | -9% | -1% |
| CSc1nc(Oc2ccc3ccccc3c2)c2ccccc2n1 | -2.3 | -11 | 15 | ? | ? | -5% | -18% |
| NS(=O)(=O)c1ccc(CCNC(=O)c2nc(CS(=O)(=O)c3ccc(Cl)cc3)no2)cc1 | -0.9 | 0 | -5 | 0.8% | 13% | 5% | 15% |

Looked up by compound from the list above, 2 records:
| SMILES | Menin MLL FP FL | D2 PAM | TRPV1 PAM | ClpP mod | Sfp PPTase inh | gsp antag | gsp agonist |
| --- | --- | --- | --- | --- | --- | --- | --- |
| NS(=O)(=O)c1ccc(CCNC(=O)c2nc(CS(=O)(=O)c3ccc(Cl)cc3)no2)cc1 | -0.9 | 0 | -5 | 0.8% | 13% | 5% | 15% |
| CSc1nc(Oc2ccc3ccccc3c2)c2ccccc2n1 | -2.3 | -11 | 15 | ? | ? | -5% | -18% |
